Screens: PubChem BioAssay, ICCB-Longwood Screening Facility, Harvard Medical School
CapD inh: inhibitors of Bacillus anthracis CapD enzyme; purified CapD enzyme, fluorescence intensity read-out; hits give low values; some hits fall short of the stated cut; z-score (concentration not given with the values); 140,000 compounds, 0.23% hits; AID 492967;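 active = z-score under -4 in either of two replicates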;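 note: stock transfer was 100 nL into about 40 µL; score is relative to mean and spread of the plate; one replicate is shown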
AID504770: E. coli YBA685 growth inhibition, screen for V. cholerae RctB inhibitors; AID 504770; z-score (no concentration beside the values); E. coli YBA685 rctB-dependent plasmid, OD600 growth, 3 h; hits give low values; 130,000 compounds, 0.27% hits;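 active = z-score under -2 on both plates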;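 note: wells of about 30 µL received 100 nL stock; score is relative to mean and SD of the test wells; the first replicate is given; strong numbers were not always called active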
An asterisk follows results filed as active; x = no result given.

SMILES	CapD inh	AID504770
CCCCOc1nc2ccccc2nc1C(C#N)C(=O)OCC (configuration not stated)	x	-0.25
CN(C(=O)c1cc2sccc2nc1C(F)(F)F)c1ccc(F)cc1F	-0.33	x
NS(=O)(=O)c1ccc(CNC(=O)c2ccncc2)cc1	x	0
CCC1(C)NC(=O)N(NC(=O)Cn2cnc3c2c(=O)n(C)c(=O)n3C)C1=O (configuration not stated)	x	0.15
CSc1ncccc1C1=N/C(=C\c2ccc(Cl)cc2)C(=O)O1	-0.51	-0.7
COc1ccc(Nc2nc(NN)nc(N3CCOCC3)n2)cc1	-0.15	x
CN(CN1C(=O)c2cc(Cl)c(Cl)cc2C1=O)C1CCCCC1	x	-1.1
COc1ccccc1-c1ccc(=O)n(CC(=O)NC(C)(C)C)n1	x	0.45
Cc1ccc(N(C)S(=O)(=O)c2c(C)[nH]c(C)c2C(=O)N2CCCC2)cc1	0.36	-1.6
O=C(c1ccccc1)c1nn(-c2ccc(C(F)(F)F)cc2)ccc1=O	9.9	0.1

A different layout for part of the listing above.
compound,CapD inh,AID504770
COc1ccccc1-c1ccc(=O)n(CC(=O)NC(C)(C)C)n1,x,0.45
Cc1ccc(N(C)S(=O)(=O)c2c(C)[nH]c(C)c2C(=O)N2CCCC2)cc1,0.36,-1.6

Next section
SMILES	CapD inh	AID504770
COc1ccccc1N1C(=O)NC(=O)/C(=C\c2cc(Br)c(O)c(OC)c2)C1=O	-1.3	x
Cc1sc(NC(=O)CN2C(=O)CCC2=O)c(C(N)=O)c1C	x	-0.35
CC(C)(C)c1ccc(C(=O)c2c[nH]c(C(=O)NCc3cccs3)c2)cc1	-0.63	x
Cc1ccc(S(=O)(=O)N2CCCC(NC(=O)NCc3ccco3)C2)cc1 (configuration not stated)	x	-0.05
Cn1cnnc1Sc1ccc(Cl)cc1NC(=O)CN1C(=O)C2CC=CCC2C1=O (configuration not stated)	x	2.2
CCCCCCCCOc1ccc(C(=O)Oc2ccc(C#N)cc2)cc1	-0.46	x
COc1ccc2oc(C(=O)OCC(=O)Nc3ccccc3SCC#N)c(C)c2c1	x	0.6
CCOC(=O)c1c(NC(=O)CSc2nnc(CNC(=O)c3cccs3)n2-c2cccc(C)c2)sc2c1CCC2	-0.32	x
CCOC(=O)c1cncc(C(=O)OCC)c1	-0.18	-0.6
CCC(C)NC(=O)CSc1nc2c(sc(=S)n2Cc2ccco2)c(=O)n1-c1ccccc1 (configuration not stated)	-0.36	x
O=C(/C=C/c1ccccc1)OCC(=O)c1ccc(-n2nncc2-c2ccco2)cc1	x	0.15
O=C(CCc1ccccc1)N/N=C/c1ccco1	x	0.85
CC(C)(C)N=c1scc(-c2ccccc2)n1-c1ccccc1	0.005	1.1
Cc1ccc(-n2c(/C=C/N(C)C)c([N+](=O)[O-])c3ccc(O)c(CN(C)C)c32)cc1	0.05	x
O=C1CSc2ccc(C(=O)N3CCN(c4cccc(C(F)(F)F)c4)CC3)cc2N1	6.5	-0.8
CCOC(=O)c1c2ccc(OCc3ccc(F)cc3)cc2n2ccccc12	-0.67	x
O=C(NC(=S)N1CCSCC1)c1ccccc1	0.34	x
CC1=C(C(=O)OCc2ccc3c(c2)OCO3)C(c2ccc(Br)cc2)NC(=O)N1 (configuration not stated)	0.16	x
CC(c1ccco1)N(C(=O)C1CC1)c1ccccn1 (configuration not stated)	-0.17	-0.75
CCc1cccc(N2C(=O)Nc3ccccc3N2O)c1	-0.68	0.5
CCc1nn2c(C)cc(C)nc2c1C	-0.12	-0.15
CCn1c(COc2ccccc2OC)nnc1SCC(=O)c1c(C)n(C)c2ccccc12	x	1.1
Cc1ccc(CN(C)CC(=O)Nc2c(C(C)C)cccc2C(C)C)o1	x	-0.1
CC(=O)NC(C)c1ccccc1 (configuration not stated)	0.46	-0.2
CCCS(=O)(=O)c1c(S(=O)(=O)CCC)c2cc(CC)ccn2c1C(=O)c1ccc(F)cc1	-0.66	-0.25
O=C(CNc1ccc(F)cc1F)N1CCN(S(=O)(=O)c2ccccc2)CC1	x	-0.3
CCOC(=O)c1oc2cc(OCc3ccccc3)ccc2c(=O)c1-c1cnn(-c2ccccc2)c1	0.21	x
NC(=O)COc1cccc(-n2cnnn2)c1	x	0.5
CCC(CO)NCC(O)c1ccccc1 (configuration not stated)	x	0.55
O=C(OCC1CC1)c1cc2ccccc2o1	x	-0.4
O=C(COc1ccc(Br)cc1Br)NCCc1ccccc1	0.21	-0.2
Cc1ccc(C2/C(=C(\O)c3ccc(Cl)cc3)C(=O)C(=O)N2c2nnc(C)s2)cc1 (configuration not stated)	-0.57	x
C=CCC(C)(NCc1ccccc1)c1ccco1 (configuration not stated)	x	1.1
CC(C)(C)OC(=O)N1CCCC1C(=O)O (configuration not stated)	0.045	-0.75
COc1ccc(-c2nc(SC(C)C(=O)Nc3ccnn3C(C)C)n[nH]2)cc1 (configuration not stated)	x	-0.55
O=c1cccc2n1CC1CC2CN(S(=O)(=O)c2ccccc2)C1 (configuration not stated)	x	-0.2
CCN(CC)c1ncnc2c1cnn2-c1cccc(C)c1	-0.12	1.1
CCOC(=O)C1=C(C(=O)c2ccccc2)C2(C(=O)Nc3ccccc32)C(C#N)=C(N)O1 (configuration not stated)	0.13	0.25
N#Cc1sc2nc3ccccc3n2c1/N=C/N1CCOCC1	0.14	1
COc1ccc(NCc2ccccc2O)cc1	0.7	-0.25
Nc1nc(Nc2ccc([N+](=O)[O-])cc2)nc(-c2ccc([N+](=O)[O-])o2)n1	-0.46	x
O=S(=O)(c1cccs1)N1CCCc2ccccc21	0.45	0.3
CCS(=O)(=O)c1ccc2oc(=S)[nH]c2c1	x	0.15
Cc1ccc2c(c1)C1CN(C)CCC1N2C(=S)Nc1ccccc1F (configuration not stated)	-0.34	x
CCCc1nc2ccccc2c2c1C(=O)N(NC(=O)c1ccc(N(CC)CC)cc1)C2=O	2	x
Cc1ccnc(NC(=O)CCNS(=O)(=O)c2ccc3c(c2)c(=O)n(C)c(=O)n3C)c1	0.18	0.3
Clc1ccc(SCCNc2ncnc3cc(Cl)ccc23)cc1	-0.68	x
O=S(=O)(c1ccc(Cl)cc1)N1CCN=C1COc1cccnc1	-1	0.9
O=C(/C=C/c1cccs1)Nc1nccs1	x	-1.5
COC(=O)c1ccc(Br)cc1	-0.14	-0.6
The list continues.
SMILES	CapD inh	AID504770
N#Cc1ccc(NC(=O)COC(=O)C23CC4CC(CC(C4)C2)C3)cc1	x	0.55
CCc1ccccc1NC(=O)Cn1c(=O)n(CC2CCCO2)c(=O)c2ccccc21 (configuration not stated)	-0.36	0.7
COc1cccc(OC)c1COC(=O)Nc1c(-c2ccccc2Cl)noc1C	0.87	0.65
Oc1[nH]c2ccccc2c1C=Nc1ccc(Br)cc1	0.12	2
Cc1ccc(N(C)C(=O)CCS(=O)(=O)c2ccc3c(c2)oc(=O)n3C)cc1	-0.79	-0.95
CC(=O)Nc1scc(C)c1-c1nc2ccccc2s1	-1.9	-0.85
Brc1ccc2ncnc(N3CCOCC3)c2c1	-0.95	-0.25
COC(=O)C(Cc1c[nH]c2ccccc12)N=Cc1cc(Cl)cc(Cl)c1O (configuration not stated)	22	-0.1
CC(=O)OC1C(C)OC(Sc2ccccn2)C(OC(C)=O)C1OC(C)=O (configuration not stated)	6.1	x
Nc1cc(=O)[nH]c(SC/C=C/c2ccccc2)n1	x	-0.9
CCOC(=O)N1CCC(NC(=O)c2c(C)nn(-c3ccccc3)c2-n2cccc2)CC1	0.95	-0.1
Nc1cc(=O)[nH]c(SCC(=O)N(c2ccccc2)c2ccccc2)n1	x	-0.5
NC(=O)COc1ccc(C2=Nc3ccccc3NC(c3ccccc3)C2)cc1 (configuration not stated)	-0.72	0.3
O=c1nc(-c2ccccc2)cc(-c2ccc(Br)cc2)[nH]1	28	-0.55
CN(C)c1ccc(C(=O)OCCOc2ccccc2F)cc1	x	-1.5
O=C(NN1C(=O)C2C3c4ccccc4C(c4ccccc43)C2C1=O)C1CC1 (configuration not stated)	x	0.95
O=C(Oc1ccccc1)n1c(=O)oc2ccc(Cl)cc21	-0.26	-0.7
CS(=O)(=O)c1cnc(-c2ccccc2)nc1-c1cc(N2CCOCC2)nc(N2CCOCC2)n1	-0.29	x
CN1C(=O)C2(c3ccccc31)C(C(=O)N1CCN(c3cccc(C(F)(F)F)c3)CC1)CC1CCCN12 (configuration not stated)	-0.92	2.2
CC(C)(C)OC(=O)C(NS(=O)(=O)c1cccc(F)c1)c1ccccc1 (configuration not stated)	0.065	x
CC(C)CN(CC(C)C)S(=O)(=O)c1cc(Cl)ccc1Cl	0.2	-1.1
O=C(c1ccc(N2CCCc3ccccc32)s1)N1CCCC1	24	-2.2*
Cc1oc2c(F)c(F)c(F)c(F)c2c1C(=O)O	x	1.5
COc1ccc(Nc2ncc(C(=O)O)c3ccccc23)cc1	x	-0.95
COc1ccc(/C=C2/SC(=S)N(CCC(=O)N3CCN(C4=NC(=O)/C(=C\c5ccc(C)cc5)S4)CC3)C2=O)cc1	-0.38	x
O=C(NC1CCCC1)c1ccc2c(c1)[nH]c(=S)n1c3ccccc3nc21	-0.18	x
COC(=O)c1cc(CN2CCNC(=O)C2)oc1C	x	-0.3
CCCN1C(=O)SC(CC(=O)Nc2cccc3ccccc23)C1=O (configuration not stated)	1.5	-0.1
Fc1ccc(CN=Cc2ccn(-c3ccc(Br)cc3)c2)cc1	-0.62	x
COc1ccc(Br)cc1S(=O)(=O)N(Cc1ccco1)CC1CCCO1 (configuration not stated)	-1.3	x
CC1=C(C(=O)OCc2ccc3c(c2)OCO3)C(c2cccc(Oc3ccccc3)c2)NC(=O)N1 (configuration not stated)	-0.23	x
CCCOC(=O)c1ccc(NC(=O)Cn2cnc3c2c(=O)n(C)c(=O)n3C)cc1	0.53	x
COc1ccccc1C(=O)NCc1ccccc1C	-0.13	-0.45
O=C(CSc1nnc(C2COc3ccccc3O2)o1)N1CCCCC1 (configuration not stated)	0.3	-0.45
Nc1cnc(-c2ccccc2)nc1	x	0.7
Cc1cnc(C(=O)OCC(=O)NCC23CC4CC(CC(C4)C2)C3)cn1	x	-1
c1ccc(-c2cc(N3CCOCC3)nc(-c3ccccc3)n2)cc1	11	0.65
COc1cc2c(cc1OC)C(C)N(C(=O)c1cccs1)CC2 (configuration not stated)	0.36	-0.5
N#Cc1c(-c2ccc(Cl)cc2)cc(-c2ccc(Cl)c(Cl)c2)nc1N	2.3	x
CCOC(=O)C1=C(C)N=c2s/c(=C/c3cc(Br)c(N4CCOCC4)o3)c(=O)n2C1c1ccccc1OC (configuration not stated)	-0.38	x
CCOC(=O)c1nc(N2CCN(c3ccccn3)CC2)c2c3c(sc2n1)CCCC3	0.1	x
COc1ccc(CCN2CSC(=S)N(CCc3ccc(OC)c(OC)c3)C2)cc1OC	0.05	x
CCOc1ccc(C(=O)CCC(=O)O)cc1	-0.61	x
CCc1ccc(NC(=O)CCNC(=O)Cn2ccc3ccccc3c2=O)cc1	-0.69	-0.3
CCOC(=O)C1=C(C(=O)OCC)SC(=C2C(=S)C(C)(C)N(C(=O)c3ccccc3Cl)c3ccccc32)S1	0.1	x
Cc1cccc(N(C(=O)c2ccccc2)C2=NCC(C)S2)c1 (configuration not stated)	0.32	0.3
O=C(NC1CCCCCC1)c1cn(-c2ccc(F)cc2)nn1	0.33	0.4
O=C(O)C1CCCN(C(=O)c2ccc(Cl)cc2)C1 (configuration not stated)	-0.26	0.35
CCN(C(=O)C1CCCN1S(=O)(=O)c1cccc2nsnc12)c1ccccc1 (configuration not stated)	-0.82	-0.15
COc1ccc(CCNC(=O)CSc2nc(N)c3c(C)c(C)sc3n2)cc1	-0.58	1.2
(cont.)
SMILES	CapD inh	AID504770
CCc1nnc(NC(=O)c2c(O)c3ccccc3[nH]c2=O)s1	x	0.4
COC(=O)Cn1c(=NC(=O)CSCC(=O)NC2CCCCC2)sc2cc(OC)ccc21	x	-0.8
CC1CCCCC1NC(=O)c1ccc2c(c1)NC(=O)C1CCCN21 (configuration not stated)	-0.36	-0.5
CCCN1C(=O)c2ccccc2NC1c1cc(OC)c(OC)c(OC)c1 (configuration not stated)	x	-0.7
CC(CC1CC(C)(C)OC1=O)c1nc(=S)[nH][nH]1 (configuration not stated)	-0.6	-0.45
Cc1ccc(-c2ccc(C#N)c(=O)n2CC(=O)N2CCC(C(N)=O)CC2)cc1	x	0.45
CC(C)c1[nH]nc2c1C(c1cccc(OC(=O)N3CCOCC3)c1)C(C#N)=C(N)O2 (configuration not stated)	-0.29	x

Compounds above that contain an aryl thioether with sulfur outside any ring, in the order listed:
SMILES	CapD inh	AID504770
CSc1ncccc1C1=N/C(=C\c2ccc(Cl)cc2)C(=O)O1	-0.51	-0.7
Cn1cnnc1Sc1ccc(Cl)cc1NC(=O)CN1C(=O)C2CC=CCC2C1=O (configuration not stated)	x	2.2
COc1ccc2oc(C(=O)OCC(=O)Nc3ccccc3SCC#N)c(C)c2c1	x	0.6
CCOC(=O)c1c(NC(=O)CSc2nnc(CNC(=O)c3cccs3)n2-c2cccc(C)c2)sc2c1CCC2	-0.32	x
CCC(C)NC(=O)CSc1nc2c(sc(=S)n2Cc2ccco2)c(=O)n1-c1ccccc1 (configuration not stated)	-0.36	x
CCn1c(COc2ccccc2OC)nnc1SCC(=O)c1c(C)n(C)c2ccccc12	x	1.1
COc1ccc(-c2nc(SC(C)C(=O)Nc3ccnn3C(C)C)n[nH]2)cc1 (configuration not stated)	x	-0.55
Clc1ccc(SCCNc2ncnc3cc(Cl)ccc23)cc1	-0.68	x
CC(=O)OC1C(C)OC(Sc2ccccn2)C(OC(C)=O)C1OC(C)=O (configuration not stated)	6.1	x
Nc1cc(=O)[nH]c(SC/C=C/c2ccccc2)n1	x	-0.9
Nc1cc(=O)[nH]c(SCC(=O)N(c2ccccc2)c2ccccc2)n1	x	-0.5
O=C(CSc1nnc(C2COc3ccccc3O2)o1)N1CCCCC1 (configuration not stated)	0.3	-0.45
COc1ccc(CCNC(=O)CSc2nc(N)c3c(C)c(C)sc3n2)cc1	-0.58	1.2
